# Screening results from PubChem BioAssay.
# CSC inhib = blocks cancer stem cells; cancer stem cell-like cells viability, luminescence; inhibition, % at 7.5 µM; 1.1% of 300,000 active;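 active = mean at 75% or more and at least half the replicates too; inconclusive = mean and replicates disagree; tested in HMLE shEcad cells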;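 also: 0% = median of negative and 100% = median of positive control wells; the first replicate is given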
# Rce1 inhib = inhibitors of yeast Ras-converting enzyme. calls only. Q03530. 0.27% of 290,000 active. yeast membranes, quenched prenylated peptide cleavage fluorescence. AID 2563;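 active = fall in fluorescence gain of 50% or more versus controls, with final raw signal at or below 3038400; inconclusive = same 50% fall but final raw signal above 3038400; inactive = fall in fluorescence gain under 50%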;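 also: plate controls were neutral control wells for no effect and wells lacking membranes for full effect; tested at 10 µM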
# Target sequence (Q03530 whole entry, looked up): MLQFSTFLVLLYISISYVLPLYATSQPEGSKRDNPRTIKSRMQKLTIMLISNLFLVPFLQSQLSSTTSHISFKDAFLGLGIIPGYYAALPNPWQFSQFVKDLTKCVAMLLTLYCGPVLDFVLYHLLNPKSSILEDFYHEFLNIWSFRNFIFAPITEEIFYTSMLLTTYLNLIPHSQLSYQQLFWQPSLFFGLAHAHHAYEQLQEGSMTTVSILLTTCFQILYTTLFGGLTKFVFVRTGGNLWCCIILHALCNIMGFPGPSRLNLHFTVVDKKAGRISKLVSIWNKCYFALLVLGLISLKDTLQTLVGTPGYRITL
# PABP polyA inh = blocks human PABP binding to poly(A) RNA | fluorescence polarization | inhibition, % at 35 µM | 1% of 290,000 active;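 active = 50% or more with normal probe brightness, or confirmed in later tests; inconclusive = above 50% with abnormal brightness, or retests that disagree; inactive = below 50% or failed in later tests; about a fifth of its hits are not listed in these tables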;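 also: calls also rest on retests at 20 µM and on dose response follow-up; controls were probe without protein and protein plus probe with vehicle; some compounds called inactive have numbers as strong as hits; many hits fall short of the cut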
# Target sequence (P11940 whole entry, looked up): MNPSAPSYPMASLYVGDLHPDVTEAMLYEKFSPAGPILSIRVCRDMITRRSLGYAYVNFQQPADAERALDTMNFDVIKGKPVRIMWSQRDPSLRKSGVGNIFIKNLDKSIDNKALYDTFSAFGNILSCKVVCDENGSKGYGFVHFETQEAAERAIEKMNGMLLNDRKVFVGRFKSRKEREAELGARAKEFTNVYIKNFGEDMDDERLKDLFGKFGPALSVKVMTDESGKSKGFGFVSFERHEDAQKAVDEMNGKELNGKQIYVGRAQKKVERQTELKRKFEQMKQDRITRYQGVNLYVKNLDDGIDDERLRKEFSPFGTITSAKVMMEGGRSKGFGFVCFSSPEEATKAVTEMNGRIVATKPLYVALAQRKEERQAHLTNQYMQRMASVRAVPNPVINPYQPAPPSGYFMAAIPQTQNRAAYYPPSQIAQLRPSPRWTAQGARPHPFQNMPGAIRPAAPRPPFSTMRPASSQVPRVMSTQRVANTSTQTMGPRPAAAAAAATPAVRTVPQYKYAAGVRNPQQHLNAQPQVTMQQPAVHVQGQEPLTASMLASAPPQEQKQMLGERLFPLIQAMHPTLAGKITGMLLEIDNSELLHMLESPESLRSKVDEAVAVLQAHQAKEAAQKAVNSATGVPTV
# MT1-MMP act inh = blocks activation of human MT1-MMP; P50281; HT1080 RFP-PRO-GFP cells, GFP/RFP ratio fluorescence, overnight; percent of plate control window, DMSO zero; GFP/RFP ratio change, % at 20 µM; 0.061% of 360,000 active;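 active = GFP/RFP ratio change of at least 30% with cell ATP level not reduced by more than half and red fluorescence within 50% of control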; also: strong numbers were not always called active
#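 Read-out: GFP/RFP fluorescence ratio; Test system: RFP-PRO-GFP reporter HT1080 cells; Compound dosing: single-point 20 µM compound, 1% DMSO; Times: overnight compound exposure at 37 °C.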
# Yeast UUG start = alters start codon recognition fidelity in yeast. S. cerevisiae UUG-firefly luciferase reporter, luminescence/redox ratio. 0.13% of 350,000 active. activity score, % at 18.7 µM;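 active = replicate mean at a twofold rise or more, about +100% in these data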;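 also: firefly luciferase made from a UUG start codon reports start codon fidelity; reporter light over untreated wells divided by growth signal over untreated wells; some hits fall short of that in this replicate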
# HIV Env fusion = inhibitors of HIV Env-mediated cell fusion; inhibition, % at 12.3 µM; AID 651610; HeLa-JRFL Env/CEM21 cell fusion, luciferase; 1.1% of 360,000 active;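 active = mean replicate inhibition score of at least 50 and every replicate individually at or above 50; inconclusive = only one of the two criteria met; inactive = mean below 50 and not all replicates reaching 50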;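 also: 0% = plate neutral controls and 100% = maraviroc near 300 nM; one replicate is shown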
# eIF4H inh = inhibitors of RNA binding by human eIF4H. Q15056. eIF4H fluorescence polarization binding assay. inhibition, % at 35 µM. 0.94% of 290,000 active. AID 2012;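 active = 50% or more with normal probe brightness, or confirmed in later tests; inconclusive = above 50% with abnormal brightness, or retests that disagree; inactive = below 50% or failed in later tests; about a fifth of its hits are not listed in these tables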;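 also: calls also rest on retests at 20 µM and on dose response follow-up; 0% = protein and probe with vehicle and 100% = probe without protein; strong numbers were not always called active; many hits fall short of the cut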
# eIF4H inh retest = also measured in eIF4H inh; calls as there; inhibition, %; compound at 20 µM; confirmation average;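 mean of two retest wells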
# PABP polyA inh retest = second read-out of PABP polyA inh, no call of its own (marks repeat the call); inhibition, %; compound at 20 µM; confirmation repeats;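 mean of two retest wells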
# MT1-MMP act inh RFP = also measured in MT1-MMP act inh; calls as there; RFP signal change, %; measured here: RFP expression control read;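 0 = vehicle wells; hits needed this value within 50% of zero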
# * marks the source's active call; other numbers are inactive results; i = inactive; ? = inconclusive; · = no result given; + = active, no number; & = joins results of further samples.
SMILES,CSC inhib,Rce1 inhib,PABP polyA inh,MT1-MMP act inh,MT1-MMP act inh RFP,Yeast UUG start,HIV Env fusion,eIF4H inh,others
COc1ccc(NC(=O)CS(=O)c2ccc(F)cc2)cc1 (stereo not drawn),9,i,6,0,1,-16,16,-4,
O=C(CCN1C(=O)C2C3CCC(C3)C2C1=O)Nc1ccc([N+](=O)[O-])cc1 (stereo not drawn),17,i,-16,1,5,·,-10,-5,
COc1ccccc1CCNC(=O)Cn1c(=O)oc2ccccc21,-14,i,-2,-1,0,-13,-1,1,
ClCCCc1cn(C[C@H]2CC[C@@H]([C@@H]3CC[C@H](Cn4cc(CCCCl)nn4)O3)O2)nn1,11,i,-1,-1,4,0,-93,-8,
O=C(CCc1ccccc1)NNc1cc(N2CCCCC2)nc(N2CCCCC2)n1,-2,i,-4,·,·,2,11,10,
COC(=O)CN1C(=O)COc2ccc(S(=O)(=O)NCc3ccc(Cl)cc3)cc21,-13,i,-1,3,3,·,7,3,
Clc1ccc(CN2CCN(/N=C/c3ccco3)CC2)cc1,1,i,-11,-3,-1,-9,-18,8,
CN(CCc1ccccc1)C(C(=O)Nc1ccc2c(c1)OCCO2)c1ccnc2ccccc12 (stereo not drawn),·,·,·,-7,-28,11,35,·,
O=C(Nc1ccccc1Oc1ccccc1)c1cccc([N+](=O)[O-])c1,-1,i,-4,-2,-2,-12,-42,3,
Cc1ccc(CSCCC(=O)NCCc2ccc(Cl)cc2)cc1,5,i,-5,2,4,-5,-1,-5,
COC(=O)C(C(=O)Nc1cc(C)on1)C1CCCCCC1 (stereo not drawn),2,i,4,0,-2,-3,·,1,
O=C(CNc1ccccc1)N/N=C/c1cc([N+](=O)[O-])ccc1N1CCCC1,12,i,5,0,-4,-19,·,0,
O=C1CC2(CCCCC2)Oc2ccc(Cl)cc21,12,i,·,-7,-3,-13,-4,·,
COc1ccc(NC(=O)[C@H](COCc2ccccc2)NC(=O)OC(C)(C)C)cc1,-19,i,-7,-3,2,-10,-47,-3,
NC(=O)c1ncn([C@@H]2O[C@H](CNCc3ccc(-c4cc(C(F)(F)F)ccc4Cl)o3)[C@@H](O)[C@H]2O)n1,·,·,·,1,3,-16,9,·,
C/C(=N\NC(=O)c1nnn(-c2nonc2N)c1CN1CCC(C)CC1)c1ccc(Br)cc1,·,·,·,-2,6,2,25,·,
Cc1ccc(OCCN2C(=O)c3ccccc3C2=O)cc1,8,i,2,-1,0,-8,-79,-9,
COc1ccc(C(=O)c2c[nH]c(C(=O)N=CN(C)C)c2)cc1,·,i,11,-7,1,·,9,-5,
O=C(Nc1ccc(N2CCCC2=O)cc1)c1cncc(Br)c1,-22,i,-5,-10,-6,-20,·,-5,
Clc1ccc(Cc2ccc(Cl)nn2)c(Cl)c1,-7,i,-13,-1,-2,6,-11,-3,

# The last two entries of the part above come first, to join the parts:
SMILES,CSC inhib,Rce1 inhib,PABP polyA inh,MT1-MMP act inh,MT1-MMP act inh RFP,Yeast UUG start,HIV Env fusion,eIF4H inh,others
O=C(Nc1ccc(N2CCCC2=O)cc1)c1cncc(Br)c1,-22,i,-5,-10,-6,-20,·,-5,
Clc1ccc(Cc2ccc(Cl)nn2)c(Cl)c1,-7,i,-13,-1,-2,6,-11,-3,
O=C(CCCc1cccs1)Nc1ccc2c(c1)OCO2,·,i,4,2,2,·,-14,-2,
CCSc1ccccc1-c1nc(-c2ccncc2)no1,0,i,-11,-5,-4,-19,-174,0,
Cc1cccc(C(=O)Nc2ccc(C(=O)Nc3ccc(O)cc3)cc2)c1,95*,i,3,5,1,-6,19,18,
Cc1nc2ccc(S(=O)(=O)N(C)CC(=O)N3CCc4ccccc43)cc2s1,2,i,-3,3,2,-6,·,2,
O=C(Cn1cnc2c(nnn2-c2cccc(Cl)c2)c1=O)N1CCOCC1,-6,i,7,4,-1,-14,10,-6,
c1ccc2oc(SCc3nc4ccccc4s3)nc2c1,-5,i,1,0,0,·,·,-6,
COc1ccc(CN2CCC(=O)N([C@H](CO)CC(C)C)CC2)cc1OC,-1,i,-7,3,-2,-3,2,1,
CC(Sc1nncs1)C(=O)Nc1ccc2c(c1)OCCO2 (stereo not drawn),-2,i,·,1,2,-5,-7,·,
COC(=O)C(Cc1ccc(O)cc1)NC(=O)Cn1cc(C)c(=O)[nH]c1=O (stereo not drawn),·,·,·,6,5,-1,16,·,
CCOC(=O)N1CCC(NC(=O)CS(=O)Cc2nc(-c3ccc(OC)c(OC)c3)oc2C)CC1 (stereo not drawn),4,i,12,6,1,-5,-64,-6,
O=C(NCc1ccco1)c1cnn2c(C(F)F)cc(-c3ccccc3)nc12,-8,i,10,7,5,-17,·,-11,
CCCCCC(=O)Nc1ccc(N2CCN(C(=O)c3ccccc3)CC2)cc1,4,i,6,2,-3,-9,·,1,
C=C(C(=O)c1ccccc1)C(CC(=O)c1ccccc1)c1ccccc1 (stereo not drawn),?,i,3,-17,-23,·,·,-9,
COc1ccc(S(=O)(=O)N(C)c2ccc(C(=O)N3CCC(C(N)=O)CC3)cc2)cc1OC,-19,i,-16,5,3,-16,-4,-8,
CCOc1ccc(S(=O)(=O)NCCC(=O)OCC(=O)c2ccc(NC(C)=O)cc2)cc1,-13,i,·,2,-2,·,-2,·,
Cc1ccc(C(CNC(=O)C(=O)Nc2ccc3c(c2)OCCO3)N2CCN(C)CC2)cc1 (stereo not drawn),-19,i,·,-7,-1,-9,2,·,
CC1(C(=O)Nc2ccc(F)cc2F)CCN1C(=O)CCC1CCCC1 (stereo not drawn),·,·,·,4,1,14,24,·,
CN1CCN(C(=O)c2ccc(S(=O)(=O)Nc3ccccc3)cc2)CC1,·,·,·,0,5,-2,4,·,
COc1ccc(NC(=O)CSc2n[nH]c(=O)n2C2CC2)cc1OC,-6,·,·,-2,3,-11,25,·,
CCN(CC)S(=O)(=O)c1cccc(-c2n[nH]c(=S)n2Cc2ccccc2)c1,-10,+,1,4,6,·,8,1,
N=c1c(C(=O)NC2CCCCC2)cc2c(=O)n3ccccc3nc2n1CC1CCCO1 (stereo not drawn),·,i,29,-3,4,-14,5,34,
O=C(Nc1nc2ccccc2[nH]1)c1cccc(Cl)c1,15,i,2,7,-7,-19,-269,-6,
Cc1ccc(OCC(=O)Nc2ccc(S(=O)(=O)Nc3ccccn3)cc2)c(C)c1,5,i,0,-6,5,-3,22,-3,
Cc1nn(CCc2n[nH]c(=S)n2C)c(C)c1Br,-3,i,11,-4,0,-25,-7,14,
O=C(CSc1ccc([N+](=O)[O-])cn1)Nc1ccc(N2CCOCC2)cc1,-6,i,7,0,-1,·,-6,2,
O=C(COC(=O)c1ccc(O)cc1)Nc1cccc(S(=O)(=O)NC2=NCCCCC2)c1,-12,i,0,0,3,4,11,3,
COC(=O)c1ccc(N2CC3CNC(=O)C2(C(=O)OC)N3C)cc1 (stereo not drawn),-11,·,·,6&11,3&10,-8&-17,12&-7,·,
Cc1cccc2sc(NC(=O)c3ccc(Cl)s3)nc12,7,i,-8,-19,-19,-12,-203,-8,
Cc1cc(NC(=O)CSCC(=O)Nc2ccccc2N2CCCCC2)no1,-4,i,·,-14,-13,-10,-29,·,
OCC[C@@H]1C[C@H](O)[C@@H](O)[C@]2(OCc3ccccc32)O1,0,i,-7,0,7,-17,13,-7,
COc1ccc2cc(C(=O)NCc3ccccc3CN3CCCC3)ccc2c1,16,·,·,2,-1,-18,10,·,
C=CC[C@@H](Cc1ccc(F)cc1)C(=O)OC[C@@H]1CCCN1C(=O)[C@@H](CC=C)CC(=O)N[C@H](CO)Cc1ccccc1,-11,·,·,2,-18,28,-14,·,
COC(=O)[C@@H](NC(=O)N1CCC(C)CC1)C(C)C,-2,i,2,-1,2,·,5,-2,
O=C(Cn1c(Cc2ccccc2)nc2ccccc21)NCc1ccc2c(c1)OCO2,-10,i,0,0,-6,·,17,2,
CC1CN(c2nc3c(c(=O)n(C)c(=O)n3C)n2Cc2c(F)cccc2Cl)CC(C)O1 (stereo not drawn),-9,i,-6,-1,0,-16,12,3,
O=C(COc1ccc(Cl)cc1)NCCN1CCCCC1,0,i,4,3,0,·,6,-2,
COc1cc(OC)cc(C(=O)Nc2ccc([N+](=O)[O-])cn2)c1,-8,i,-1,6,5,-17,·,-2,
COc1ccccc1-c1nc(NC(C)=O)n[nH]1,-7,i,6,·,·,·,·,-2,
CCCN1C2CCCC1CC(NC(=O)c1ccc(C(C)(C)C)cc1)C2 (stereo not drawn),-3,i,3,3,2,-11,4,1,
Cc1ccc(-c2cc(C(=O)Nc3nccs3)c3ccccc3n2)c(C)c1,35,i,12,-5,-11,·,10,0,

# Grouped by structure, the compounds so far containing bromine.
SMILES,CSC inhib,Rce1 inhib,PABP polyA inh,MT1-MMP act inh,MT1-MMP act inh RFP,Yeast UUG start,HIV Env fusion,eIF4H inh,others
C/C(=N\NC(=O)c1nnn(-c2nonc2N)c1CN1CCC(C)CC1)c1ccc(Br)cc1,·,·,·,-2,6,2,25,·,
O=C(Nc1ccc(N2CCCC2=O)cc1)c1cncc(Br)c1,-22,i,-5,-10,-6,-20,·,-5,
Cc1nn(CCc2n[nH]c(=S)n2C)c(C)c1Br,-3,i,11,-4,0,-25,-7,14,

# Following part:
SMILES,CSC inhib,Rce1 inhib,PABP polyA inh,MT1-MMP act inh,MT1-MMP act inh RFP,Yeast UUG start,HIV Env fusion,eIF4H inh,others
O=C(c1ccccc1)c1cccc[n+]1[O-],-12,i,1,2,5,-15,12,1,
Cc1ccc(SCC(=O)Nc2cccc(S(=O)(=O)N3CCOCC3)c2)cc1C,·,·,·,0,0,-4,12,·,
CCC1=NN(C(=O)Cc2ccc(OC)cc2)C(O)(C(F)(F)F)C1 (stereo not drawn),-6,i,3,-2,7,0,·,-1,
COc1ccc(C)cc1S(=O)(=O)Nc1ccc2c(c1)OCCO2,19,i,-16,2,-5,1,0,-11,
Cc1nc(NCC2CCCO2)nc2c1C(=O)CC(C)(C)C2 (stereo not drawn),-13,i,5,-6,-3,-7,-75,-3,
O=C(Nc1ccccc1Cl)c1ccc(=O)[nH]n1,-4,i,6,-1,-1,-21,41,0,
CC(=O)Nc1ccc(OCC(O)Cn2c(C)nc3ccccc32)cc1 (stereo not drawn),-8,·,-7,3,-1,-6,·,3,
CC(C)C(NC(=O)c1c(F)cccc1F)C(=O)NCc1ccncc1 (stereo not drawn),·,·,·,-5,-2,3,3,·,
CCN(CC(=O)Nc1ccc2c(c1)CCC2)Cc1nc2ccccc2c(=O)[nH]1,8,i,19,-1,-1,-16,-103,-11,
COc1ccc(NC(=O)CCn2c(=S)[nH]c3ccccc3c2=O)cc1OC,-9,i,-6,4,3,7,-10,-2,
O=C(/C=C1\C(=O)Nc2ccccc21)/C=C1\C(=O)Nc2ccccc21,·,·,10,-1,8,11,8,28,
Cc1ccc2[nH]c(=O)c(C3C(C#N)=C(N)Oc4c3ccc3cccnc43)cc2c1 (stereo not drawn),7,·,12,-13,-4,-29,47,76,eIF4H inh retest=-8;PABP polyA inh retest=-1
CS(=O)(=O)N(CC(=O)O)c1ccc(Oc2ccccc2)cc1,-2,i,5,0,11,-16,8,-6,
Cc1cc(C)c(C(=O)Cn2cnc3cc([N+](=O)[O-])ccc3c2=O)cc1C,7,i,-7,4,-6,-9,-6,-10,
COc1cc(OC)c(NC(=O)c2cccc(F)c2)cc1Cl,-21,i,-17,-7,0,·,8,3,
COc1ccc(NC(=O)N2CCCC(c3nc(-c4ccc(OC)cc4)no3)C2)cc1 (stereo not drawn),-1,i,-5,3,-8,-2,32,-18,
Cc1ccc(C(=O)NC2CCCCCC2)o1,-8,i,4,1,15,9,-40,-4,

# A portion of the library (hit frequency here may not be typical).
